gsp antagonist – antagonists of gsp mutant (McCune-Albright syndrome); actives 0.4% (n = 340,000); gsp-mutant cells, cAMP HTRF, 30 min; control for the full effect not named in the record; AID 624288; Potency, µM (series often up to 76.9 µM), for the others: top-dose activity change, negative = inhibition, most hits filed as inhibitors; active = falling curve of any shape with a large fitted effect; inconclusive = falling curve, mostly with a smaller effect; inactive = flat or rising curve; cell line not stated here;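 further: intracellular cAMP measured with PDE inhibitor Ro 20-1724 present during compound exposure; potency means the concentration at half of the fitted maximal effect; on the % scale 0 is the no-effect control and ±100 the full control effect; nearly all actives have a fitted effect of over 65% in size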
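G418-selected cells were plated in DMEM/10% FBS for 16-24 h at 37C, then treated with compounds plus the PDE inhibitor […] (300 uM solution added) for 30 min at 37C. Intracellular cAMP was measured by HTRF after 30 min lysis at room temperature.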
gsp ag – activates gsp, the McCune-Albright syndrome mutation; gsp mutant cells, cAMP HTRF, 30 min; control for the full effect not named in the record; Potency, µM (highest dose often 76.9 µM), for inactives: at the top dose activation (cAMP increase), hits mostly activators; actives 0.13% (n = 340,000); active = well fitted activation curve with a large enough effect; inconclusive = small, poorly fitted or top-dose-only effect, or another doubt; inactive = no such curve, though single readings can be large or run the other way; cell line not stated here;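 further: phosphodiesterase inhibitor Ro 20-1724 added with compounds to block cAMP breakdown; potency means the concentration at half of the fitted maximal effect; nearly all actives have a fitted effect of over 60% in size; about a fifth of the inactives were tested at one dose only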
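Cells stably selected in G418 were plated at 2000/well, grown 16-24 hr, then given compounds in DMSO with the PDE inhibitor […] (300 uM solution added) for 30 min at 37C; cAMP was read by HTRF.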
Sfp PPTase inh – Sfp phosphopantetheinyl transferase inhibition; actives 3.5% (n = 310,000); AID 1490; Q9F4F7; Biochemical Sfp PPTase activity, qHTS; Potency, µM, inactives show max response, negative = inhibition, actives largely listed as inhibitors; active means well fitted inhibition curve with a large enough effect; inconclusive means small, poorly fitted or top-dose-only effect, or another doubt; inactive means no such curve, though single readings can be large or run the other way;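 further: the enzyme is Sfp with the accession as filed and its product quenches rhodamine fluorescence; potency means the concentration at half of the fitted maximal effect; 0% = enzyme reaction without inhibitor and -100% = no enzyme wells; top concentration of the series not given in the record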
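Fluorescence-quenching assay: 15 nM Sfp-PPTase preincubated 15 min at room temperature with compound, then 5 uM rhodamine-CoA and 12.5 uM BHQ-2-labelled YbbR peptide added. Fluorescence (ex 525/em 598 nm) read at start and after 30 min; difference gives rate.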
PINK1 expr mod – PINK1 expression modulation; Potency, µM (series often up to 76.6 µM), for the others: at the top dose activation (PINK1 increase), actives largely listed as activators; actives 0.2% (n = 410,000); PINK1 immunofluorescence, high-content cytometry, 24 h; active = well fitted activation curve with a large enough effect; inconclusive = small, poorly fitted or top-dose-only effect; inactive = flat fitted curve, though single readings scatter; cell line not stated here;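 further: potency means the concentration at half of the fitted maximal effect; % of control where 0% means no effect; nearly all actives have a fitted effect of over 65% in size; a mitochondrial uncoupler was the plate control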
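Compound titrations (5 concentrations, 24 h) on a stable cell line; DMSO and CCCP controls. Endpoint: fixed-cell PINK1 immunofluorescence with mitochondrial, cell and nuclear markers, scanned by microplate cytometer.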
D2 ag – human D2 receptor agonism in beta-arrestin assay; P14416; actives 0.084% (n = 360,000); DiscoveRx PathHunter D2 beta-arrestin, luminescence, 90 min; 100% = 57 uM dopamine signal; activation, % (test concentration not listed); in the data active = activation above about 40%; inconclusive = about 15% to 40%; inactive = below about 15%; further: compound concentration not given in the record; the text of the record calls up to 30% inactive
Target sequence (P14416 whole entry, looked up): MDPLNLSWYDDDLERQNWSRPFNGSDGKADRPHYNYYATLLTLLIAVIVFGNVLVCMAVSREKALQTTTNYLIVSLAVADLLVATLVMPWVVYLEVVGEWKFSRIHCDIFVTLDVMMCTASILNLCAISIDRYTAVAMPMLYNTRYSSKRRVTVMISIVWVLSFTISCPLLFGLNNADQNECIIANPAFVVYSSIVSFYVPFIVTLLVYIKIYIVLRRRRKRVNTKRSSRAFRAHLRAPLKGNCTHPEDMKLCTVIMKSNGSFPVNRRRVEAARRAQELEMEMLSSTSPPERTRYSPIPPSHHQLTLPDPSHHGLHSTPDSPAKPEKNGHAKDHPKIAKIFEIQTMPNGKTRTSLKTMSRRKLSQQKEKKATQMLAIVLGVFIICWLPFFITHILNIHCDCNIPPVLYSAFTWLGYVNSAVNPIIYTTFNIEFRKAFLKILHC
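DiscoveRx PathHunter D2 beta-arrestin cells (2,100/well) attached overnight, then compound-stimulated 90 min at 37 C in HBSS/10 mM HEPES/0.1% Tween-20 buffer; beta-galactosidase complementation read by luminescence after 1 h at ambient temperature. Dopamine 57 uM final (EC100) as control.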
ClpP mod – qHTS Assay for Activators of ClpP | ATP-dependent Clp protease proteolytic subunit (Bacillus subtilis (strain 168)), P80244 | purified B. subtilis ClpP, FRET peptide cleavage, 20 min | Potency, µM (series often up to 57.5 µM), for the others: at the highest dose activity change, negative = active | actives 1.9% (n = 340,000) | AID 651965, 2013; active = well fitted falling curve with a large enough effect; inconclusive = small, poorly fitted or top-dose-only effect; inactive = no such curve, though single readings can be large or run the other way; further: potency means the concentration at half of the fitted maximal effect; the source files actives as falling curves though it sought activators and does not explain the sign; nearly all actives have a fitted effect of over 65% in size; many hits overshoot -100%
Target sequence (P80244 whole entry, looked up): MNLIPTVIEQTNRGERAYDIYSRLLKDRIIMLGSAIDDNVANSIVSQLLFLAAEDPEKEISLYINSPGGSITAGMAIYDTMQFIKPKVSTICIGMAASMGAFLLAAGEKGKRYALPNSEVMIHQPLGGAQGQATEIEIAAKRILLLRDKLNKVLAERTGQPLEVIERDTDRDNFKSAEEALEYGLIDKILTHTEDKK
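ClpP 10 microg/mL final, pH 8 Tris/KCl buffer with BSA, glycerol, Tween-20; compound pinned in; FRET-FV substrate; RT 20 min; Ex320/Em430; ΔFRET vs ADEP 5.8 microM, DMSO, no enzyme.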
Menin MLL FP FL – displaces fluorescein MLL peptide from human menin | Fluorescence polarization, fluorescein-MLL peptide displacement from menin | FP activity change, % at 61.4 µM | 290,000 tested, under 10 active; inconclusive = falling polarisation curve, or a change in total fluorescence; inactive = total fluorescence flat and polarisation flat or rising; no compound was filed as active; the % refers to the polarisation; negative = inhibition;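 further: % of control where 0% means no effect; inhibitors lower the polarisation; unlabelled MLL peptide was the positive control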
Starred values were filed as active, the others as inactive; ? = inconclusive; nt = not tested or not shown; & = joins results of further samples; [ ] = dose if it differs, or a comment.

SMILES | gsp antagonist | gsp ag | Sfp PPTase inh | PINK1 expr mod | D2 ag | ClpP mod | Menin MLL FP FL
CC1CCC(=O)N(CCC#N)CC1 (stereo unspecified) | 2.3% | nt | 0.4% | 0.8% | -1.4 | -0.6%&0.0% | 2.6
CC1(C)CC(NCc2ccncc2)CC(C)(C)N1 | 4.5% | 5.1%[15.4 µM] | 12.4% | -1.9% | -10.7 | -3.2% | -5.4
O=[N+]([O-])c1cc(S(=O)(=O)N2CCCC2)ccc1NN=C1CCCC1 | -25.5% | -25.2% | -7.2% | 2.5% | 1.3 | 1.2% | 6.0
CCN(C(=O)c1cn(CC)c(=O)c2cc(OC)c(OC)cc12)c1ccccc1C | 6.2% | 5.7% | 9.2% | -2.2% | -0.8 | -20.2% | 3.3
O=C(CCn1c(=O)c2cccn2c2ccc(F)cc21)NCc1cccc(F)c1 | -2.2% | -5.8% | 1.7% | 4.0% | -2.5 | -24.7% | nt
CN(C(=O)c1ccccc1)C1c2c(ccc3ccccc23)OCC1CO (stereo unspecified) | -6.4% | -41.8%[inhibitor] | -21.6% | 5.8% | -5.3 | -1.1% | -2.0
COc1ccc(-c2nc3cnc(N4CCNCC4)nc3n(Cc3ccc(F)cc3)c2=O)cc1 | nt | nt | 16.8% | -0.7% | nt | nt | 0.7
N#C/C(=C\c1ccc(O)c(O)c1)C(=O)NCc1ccccc1 | -11.1% | nt | ? | 1.8%&-0.4% | -3.5 | 3.1%&5.4% | ?
Cc1ccc2cc(CCNC(=O)CCCc3ccccc3)c(=O)[nH]c2c1 | 5.3% | 3.2% | 12.8% | 0.2% | 0.1 | ? | nt
Cc1cc(NS(=O)(=O)c2ccc(NC(=O)C(C(C)C)N3C(=O)c4ccccc4C3=O)cc2)nc(C)n1 (stereo unspecified) | -14.9% | -20.2% | -18.6% | 3.1%[38.3 µM] | -1.2 | 0.6% | 2.6
O=C(NC(=S)N1CCc2ccccc21)C1CCC1 | 12.5% | -1.5%[15.4 µM] | -0.5% | 1.2% | -2.1 | 1.3% | 4.8
O=C(Nc1nccs1)c1cccc(NC(=O)C2CC2)c1 | -1.7% | -34.5%[inhibitor] | 11.3% | -0.3%[38.3 µM] | -1.9 | -0.2% | 2.3
COc1ccc(NC(=O)CCS(=O)(=O)c2ccc3c(c2)NC(=O)C(C)S3)cc1OC (stereo unspecified) | 7.0% | -47.2%[inhibitor] | 8.2% | -0.7% | 5.8 | 1.3% | -2.1
CC(=O)NC(CC(=O)NNC(=O)c1cc2ccccc2cc1O)c1ccccc1 (stereo unspecified) | -0.2% | 13.0% | 7.7% | 2.1% | 14.5 | -5.5% | nt
O=C(COc1ccc2ccccc2c1)Nc1ccc(Br)cc1C(=O)O | -23.1% | 7.7%[15.4 µM] | -19.5% | 18.2% | -2.1 | -9.5% | -2.2
CCC(C)[C@H]1CN=C(N)N1CCCc1cc(OC)c(OC)c(OC)c1 (stereo partly specified) | 12.0% | -15.3% | 7.8% | 1.7% | -1.5 | -1.3% | 4.6
COc1ccc(NC2CC(=O)N(c3cc([N+](=O)[O-])ccc3C)C2=O)cc1 (stereo unspecified) | -4.8% | 12.8%[15.4 µM] | -1.2% | 2.9% | -4.1 | -2.1% | 2.6
COc1ccc(C(=O)N[C@H](C(=O)NCCCSc2ccccc2)C(C)C)cc1 | -5.8% | -4.6%[15.4 µM] | nt | -0.1% | -3.8 | -2.3% | nt
C/C(N)=C(/C#N)C(=O)CSc1nnc(-c2ccc(OC(F)F)cc2)o1 | 5.2%&0.4% | -8.5%&6.3% | 2.3% | 1.5% | -1.6&0.6 | -0.5% | 1.7
COc1nc(N2CCOCC2)nc(C)c1[N+](=O)[O-] | 14.3% | 22.3% | 11.4% | 1.7% | 3.2 | -1.7% | -1.5
Cc1noc(C)c1S(=O)(=O)N1CCC(C(=O)c2ccccc2)CC1 | 12.2% | -8.1%[15.4 µM] | 8.0% | 2.5% | 2.5 | 0.9% | -0.6
CCN(C[C@H]1N[C@@](Cc2ccccc2)(C(=O)OC)[C@H]2C(=O)N(C)C(=O)[C@@H]12)S(=O)(=O)c1ccc(OC(F)(F)F)cc1 | -24.2% | nt | nt | 1.7% | ? | 1.4% | nt
COc1ccc(NC(=O)CN(C)S(=O)(=O)c2cnc[nH]2)cc1OC | 1.3% | ? | 9.2% | 0.7% | -2.0 | -1.0% | nt
Nc1nc(N)nc(-c2cccc(Cl)c2Cl)n1 | 3.9% | -0.9% | nt | 0.3% | -4.4 | -4.7% | nt
CCNc1ccc(C(=O)OCC)cc1NC(=O)c1cc(S(=O)(=O)N2CCOCC2)ccc1C | -8.7% | -12.4% | 0.2% | 2.7%[38.3 µM] | 0.2 | -3.3% | -1.8
COc1ccc(C(=O)N=c2sc3ccccc3n2C)cc1OC | -11.0% | -2.7% | 6.0% | 1.3% | 7.9 | nt | 9.7
COCCCN(C(=O)c1cc(Cl)nc2ccccc12)c1c(N)n(Cc2ccccc2)c(=O)[nH]c1=O | 1.1% | 19.8% | nt | 1.4% | 0.4 | -2.8% | nt
O=C(c1ccco1)N1CCN(c2nc(C3CC3)nc3c2nnn3Cc2ccccc2Cl)CC1 | -14.5% | -3.4% | ? | 0.4% | 6.1 | -15.1% | -1.3
O=C(COC(=O)Cc1ccc(F)cc1)NC(=O)c1ccccc1 | 19.7% | 4.5% | nt | 1.2% | -6.2 | 0.4% | nt
Nc1nonc1-n1nnc(C(=O)N/N=C/c2cccc(Cl)c2)c1CSc1ccc(Cl)cc1 | -5.5% | 8.2% | 2.2% | 6.2% | -0.1 | -6.4% | -2.8
COc1ccc(NC(C)=O)cc1NC(C)C(=O)Nc1cc(C(F)(F)F)ccc1N1CCOCC1 (stereo unspecified) | -6.7% | -0.8%[15.4 µM] | -5.2% | 4.1% | -2.4 | 0.0% | 1.6
OCCN1CCN(Cc2ccc3ccccc3c2)CC1 | 13.5% | 10.3% | -28.7% | 0.0% | -5.8 | 1.3% | -2.9
Cc1cc(C)c(C#N)c(SCCS(=O)(=O)c2ccc(Cl)cc2)n1 | -21.9% | 17.1%[15.4 µM] | -13.4% | -0.8% | -0.2 | nt | 2.1
Cn1c(-c2ccc(Br)cc2)cnc1NCc1ccc(C#N)cc1 | -10.4% | -46.5%[inhibitor] | -13.8% | 3.1% | -1.8 | -0.1% | -0.4
C=CC[C@@H](CC(=O)N[C@@H](CO)Cc1ccccc1)C(=O)N[C@H](C)COC(=O)[C@@H](CC=C)Cc1ccc(F)cc1 | -1.4% | -4.2% | nt | 1.2% | -2.9 | -0.8% | nt
CC(=O)OC1CC2(C)C(=O)CCC2C2CCc3cc(O)ccc3C12 (stereo unspecified) | 2.2% | -0.9% | -9.5% | nt | -1.5 | -1.0% | 1.0
CC1CC(C)CN(C(C(=O)NC2CCCCC2)c2ccnc3ccccc23)C1 (stereo unspecified) | nt | nt | nt | 0.2% | -3.9 | -2.2% | nt
CCCCOc1ccc(C(=O)NCc2ccccn2)cc1 | 9.4% | -0.8% | 11.2% | 2.3% | -2.7 | 0.3% | 0.8
COCCn1cnc2c1c(=O)n(CC(=O)O)c(=O)n2Cc1ccccc1 | 11.8% | 27.7% | 7.3% | 2.1% | -6.2 | -1.6% | 2.2
COc1ccc(OC)c(C2CC(=O)N3CN(c4ccccc4)CSC3=C2C#N)c1 (stereo unspecified) | -10.4% | -48.7%[inhibitor] | 4.47µM* | 0.9% | -4.4 | -0.4% | -2.8
Cc1cccnc1NC(=O)c1ccccc1-c1ccccc1C(=O)Nc1ncccc1C | 8.9% | 3.0% | 5.3% | -4.3% | -1.8 | 3.1% | 2.7
CCOC(=O)C1=C(C)Nc2sc(C(=O)c3ccc(C)cc3)c(N)c2C1c1ccc(C(=O)OC)cc1 (stereo unspecified) | -3.0% | -2.0%[15.4 µM] | 5.8% | 0.0% | -8.7 | 8.91µM* | 6.3
COc1ccccc1CN1CC(C(=O)N2CCCCO2)CCC1=O (stereo unspecified) | 15.7% | -19.8% | 13.5% | 1.2% | -5.7 | 1.3% | nt
CCN(CC)CCCNC(=O)c1cn(CCOC)c(=O)c2c1c1ccccc1n2C | -17.9% | 22.4% | -15.7% | 3.2%[38.3 µM] | 0.2 | 10µM* | -1.3
O=C(O)CCn1c(=O)oc2cc(S(=O)(=O)N3CCCC3)ccc21 | 2.1% | 21.8%[15.4 µM] | nt | 0.3% | -2.1 | 0.1% | nt
COc1ccc(NC(=O)c2ccc(CN3CCN(c4ccccc4)CC3)cc2)cc1OC | -9.1% | -20.5% | -8.4% | 4.7% | ? | -14.1% | 4.5
O=C(CCNC(=O)C1CCN(S(=O)(=O)c2ccc(F)cc2)CC1)NCc1ccc(Cl)cc1 | 3.9% | 27.9% | 14.0% | 6.3% | 0.5 | -1.7% | nt
CC(C(Sc1ccccc1N)c1ccccc1)[N+](=O)[O-] (stereo unspecified) | 0.3% | -56.0%[inhibitor] | 3.98µM* | -3.2% | -4.8 | 1.2% | 0.5
COC(=O)C1=C(C)N(C)C(C)=C(C(=O)OC)C1c1ccsc1 | -4.4% | -20.0% | -3.0% | -3.5% | -2.9 | 52.5% | 4.3
CCn1c(SCC(=O)Nc2nc(-c3ccc(C)cc3)cs2)nnc1-c1ccccc1 | -12.1% | ? | 1.2% | ? | -1.8 | 2.0% | 5.4
Cc1ccccc1C(=O)Nc1ccnn1C1CCN(C(=O)c2cnsn2)CC1 | 9.2% | 18.3% | 10.3% | 0.4% | -0.8 | -0.8% | 1.0
COCCCNC1=C(C#N)C(=O)NC(c2cccs2)S1 (stereo unspecified) | nt | 10.3% | nt | 3.1% | -4.6 | 2.3% | nt
CC(C)(C)OC(=O)NCCCC[C@H](NC(=O)[C@H](Cc1c[nH]c2ccccc12)NC(=O)OCc1ccccc1)C(=O)O | 2.6% | ? | 8.1% | -0.6% | 5.5 | -4.9% | 7.0
CC1=C2C(=O)OC(c3ccoc3)C2(C)CCC1 (stereo unspecified) | 8.1% | 1.4% | 8.5% | 0.5% | -5.7 | 25.1µM* | -1.5
CCOC1=C2[C@@H](CN(S(=O)(=O)c3ccc(C)cc3)[C@H]2c2ccccc2F)[C@H]2C(=O)N(c3ccccc3)C(=O)[C@H]2C1 | nt | nt | nt | 2.3% | -3.8 | -0.6% | nt

Source: PubChem
